# Compound activity as filed in PubChem.
# STK33 kinase inh: inhibitors of purified STK33 kinase, primary screen, biochemical, ADP-Glo luminescence, homogeneous, cell-free. MBP phosphorylation. inhibition, % at 10 µM. actives 0.073% (n = 320,000). AID 2661, 2010. Serine/threonine-protein kinase 33 (Homo sapiens), Q9BYT3;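 active = inhibition at or above 25%, using the most active replicate where run in duplicate; inactive = inhibition below 25%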
# Target sequence (Q9BYT3 whole entry, looked up): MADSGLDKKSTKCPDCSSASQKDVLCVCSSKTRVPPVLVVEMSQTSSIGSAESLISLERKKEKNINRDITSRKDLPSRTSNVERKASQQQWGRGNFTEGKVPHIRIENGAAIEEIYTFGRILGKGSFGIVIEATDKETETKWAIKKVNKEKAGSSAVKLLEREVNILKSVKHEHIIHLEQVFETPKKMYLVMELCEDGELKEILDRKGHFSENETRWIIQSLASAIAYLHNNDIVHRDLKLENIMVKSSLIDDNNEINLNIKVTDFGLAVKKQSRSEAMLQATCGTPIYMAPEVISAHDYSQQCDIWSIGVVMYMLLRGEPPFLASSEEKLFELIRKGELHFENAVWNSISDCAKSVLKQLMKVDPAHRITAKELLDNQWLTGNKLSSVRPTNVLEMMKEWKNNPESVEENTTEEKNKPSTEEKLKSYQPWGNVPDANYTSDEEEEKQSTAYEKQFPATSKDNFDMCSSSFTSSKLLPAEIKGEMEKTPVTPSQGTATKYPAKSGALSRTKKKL
# * marks the source's active call; other numbers are inactive results.
SMILES,STK33 kinase inh
COc1ccccc1NC(=O)CS(=O)(=O)c1cn(CC(=O)N(C(C)C)C(C)C)c2ccccc12,-0.8
O=C(COC(=O)C1CC1)Nc1ncc(Cl)cc1Cl,-0.4
COc1ccc(OC)c(NC(=O)C(=O)NNC(=O)COc2ccc(Br)cc2C)c1,-4.2
COc1ccc(N2CCN(CC(=O)N3N=CCC3c3ccccc3)CC2)cc1 (configuration not stated),-3.0
O=C(c1ccccc1F)N(NC(=O)C(O)(c1ccccc1)c1ccccc1)c1ccccc1,-1.8
O=C(c1ccc(Cl)cc1)c1ccc(OCC(O)CN2CCOCC2)cc1 (configuration not stated),-2.1
CC(=O)c1ccc(NC(=O)/C=C/c2ccc(C)cc2)cc1,-0.6
S=c1[nH]nc(-c2cc(-c3ccco3)[nH]n2)n1-c1cccc2ccccc12,-5.2
CCn1c(SCC(=O)Nc2nc(C)cs2)nnc1C(NC(=O)c1ccccc1Cl)C(C)C (configuration not stated),-0.8
Brc1ccc(-n2cccc2/C=N/n2cnnc2)cc1,-0.6
CCOC(=O)C1=C(C)NC(C)=C(C(=O)OCC)C1C(=O)OCC(=O)N1c2ccccc2CC1C (configuration not stated),-0.1
O=C(Nc1ccc(Cl)cc1)c1ccco1,-1.8
O=C(CNC(=O)c1ccc(OC(F)F)cc1)NC1CCCc2ccccc21 (configuration not stated),0.3
CCCCn1c(N)c(N(CC(C)C)C(=O)c2cc(-c3ccco3)nc3ccccc23)c(=O)[nH]c1=O,0.0
Cc1ccc(NC(=O)/C(=C/c2ccco2)c2ccccc2)c(C)c1,-1.3
Cc1cc(C)nc(SCc2ccc(C(=O)N/N=C3\CCCC(=O)C3)cc2)n1,-0.7
CN(C1CCCCC1)S(=O)(=O)c1ccc(NC(=O)CCC(=O)O)cc1,-0.9
O=C(COc1ccc2c(c1)oc(=O)c1ccccc12)NCCCN1CCOCC1,0.1
COc1ccc(CN(C)C(=O)CCN2C(=O)c3ccccc3C2=O)c(OC)c1OC,-1.5
COc1ccccc1N(CC(O)Cn1ccnc1C)S(=O)(=O)c1ccccc1 (configuration not stated),1.2
CC(C)(C)c1ccc(-c2noc(CCC(N)=O)n2)cc1,-1.6
c1ccc2c(c1)nc1n2CCS1,1.8
Cc1ccc(-c2onc3ccc(C4OCCO4)cc23)cc1,-0.6
Cc1csc(CN(C)C(=O)C2CCC(=O)N(CCN(C)C)C2)n1 (configuration not stated),0.5
O=S(=O)(NCc1ccccn1)c1ccc2c(c1)OCCO2,-0.3

# As a working copy, part of the list above.
SMILES,STK33 kinase inh
CN(C1CCCCC1)S(=O)(=O)c1ccc(NC(=O)CCC(=O)O)cc1,-0.9
O=C(COc1ccc2c(c1)oc(=O)c1ccccc12)NCCCN1CCOCC1,0.1
COc1ccc(CN(C)C(=O)CCN2C(=O)c3ccccc3C2=O)c(OC)c1OC,-1.5
COc1ccccc1N(CC(O)Cn1ccnc1C)S(=O)(=O)c1ccccc1 (configuration not stated),1.2
CC(C)(C)c1ccc(-c2noc(CCC(N)=O)n2)cc1,-1.6

# Next structures.
SMILES,STK33 kinase inh
COc1ccc(/C=N\NC(=O)c2sc(N)nc2C)cc1OC,-2.4
CCOC(=O)C(Cc1ccccc1)C(=O)Nc1ccc(N(CC)CC)cc1 (configuration not stated),-0.2
COc1ccccc1C(=O)COC(=O)c1ccc(-n2cnnn2)cc1,-1.4
Cc1occc1C(=O)Nc1nnc(-c2cccs2)s1,-1.0
CN1C(=O)/C(=C/c2cn(CC(=O)N3CCCCC3)c3ccccc23)c2ccccc21,-0.8
CCOC(=O)c1cnc(-n2cc(C)cn2)nc1Nc1ccccc1OCC,-1.0
CS(=O)(=O)c1sc2nc(-c3ccccc3)cc(-c3ccccc3)c2c1N,-1.7
Cc1cccc(NC(=O)c2ccc(S(=O)(=O)NCc3cccnc3)cc2)c1,-0.7
O=C(CN1CCN(S(=O)(=O)c2ccccc2F)CC1)NC1CCCC1,1.9
CCOC(=O)c1cc2c(ccn2C)n1CC(=O)N1CCC(C)CC1,0.7
CCCCNC(=O)C(NS(=O)(=O)c1cccc2nsnc12)c1ccccc1 (configuration not stated),0.0
CCCCNC(=O)CNC(=S)N(Cc1ccccc1)Cc1cccs1,-2.2
O=C(Nc1nc2c(s1)CCCC2)c1ccc(Br)o1,1.0
O=C(Nc1cccc(Cl)c1)Nc1nnc(CC2=CCCCC2)s1,-1.6
CCc1ccc(C2C(C#N)=C(N)N(N(C)C)C3=C2C(=O)CCC3)s1 (configuration not stated),-0.4
CCOC(=O)C1=C2SCCN2C(=O)C(C#N)C1(C)C (configuration not stated),-0.8
Cc1ccc2c(c1)C1(OCCO1)C(=O)N2,-0.2
NC(=O)c1ccc(NC(=O)CS(=O)(=O)c2cn(CC(=O)N3CCCCC3)c3ccccc23)cc1,-0.7
Nc1nnc(/C=C/c2cccc([N+](=O)[O-])c2)s1,-1.3
CN(C)C(=O)c1ccc(NC(=O)CC2SC(N3CCCC3)=NC2=O)cc1 (configuration not stated),-0.1
Cc1ccc(C)c(N2CCN(C3CCCC(C)C3)CC2)c1 (configuration not stated),-4.0
CCC(C)(C)c1nnc(NC(=O)c2cccc([N+](=O)[O-])c2)s1,-0.1
Clc1c(-c2nnc3n2CCCCC3)sc2ccccc12,0.7
O=[N+]([O-])c1ccccc1/C=N/N1CCN(c2ccccn2)CC1,-0.8
CCC(=O)N(CC)c1nc(-c2ccc(OC)cc2)cs1,1.2
# Other compounds:
SMILES,STK33 kinase inh
N#Cc1c(NC(=O)c2ccc(Cn3cc(Br)cn3)o2)sc2c1CCCCCC2,-1.2
CCCC(=O)Nc1ccc(C2C(=O)c3ccccc3C2=O)cc1,0.1
CCOc1cc(/C=C2\C(=O)N(c3cccc(C(=O)O)c3)N=C2C(F)(F)F)ccc1OCC(=O)Nc1ccccc1OC,4.9
O=C(CCc1ccccc1)N/N=C\C1CC=CCC1 (configuration not stated),-1.4
O=C(c1ccc([N+](=O)[O-])cc1)N(Cc1cccs1)C1CCS(=O)(=O)C1 (configuration not stated),-1.5
Cc1cccn2c(=O)nc(SCC(=O)N3CCCCCC3)nc12,-0.7
O=C(NCC(=O)N(c1ccccc1F)C(C(=O)NC1CCCC1)c1ccncc1)c1ccco1 (configuration not stated),-0.3
S=c1nc(-c2ccco2)[nH][nH]1,-2.3
CCc1cccc(NC(=O)CCNS(=O)(=O)c2cc(Br)cnc2N)c1,-0.6
CC(CNC(=O)CN1C(=O)CCSc2ccccc21)c1ccccc1 (configuration not stated),-0.3
Cc1ccc(NC(=O)CN(C)C(=O)C(C)OC(=O)CNC(=O)c2ccc(Cl)c([N+](=O)[O-])c2)cc1 (configuration not stated),-0.1
CC1=NOC(=O)/C1=C\c1ccc2c(c1)OCO2,-0.7
CC(C)(C)C(=O)NC(=S)Nc1ccccn1,-1.7
COC(=O)c1ccc(CN2CCC(n3nccc3NC(=O)C3CC3)CC2)cc1,-1.9
CCOC(=O)C1CCCN(C(=O)c2cccs2)C1 (configuration not stated),-1.5
CCOCCCNC(=O)c1ccc(Cn2c(=S)[nH]c3c([nH]c4ccc(OC)cc43)c2=O)cc1,0.9
CC(C)(C)NC(=O)CSc1nnc(NC(=O)c2ccccc2Cl)s1,-0.7
CCOC(=O)C1=C(C)N(C)C(=O)NC1c1cccc(O)c1 (configuration not stated),-0.2
Cc1ccc(CSc2nnc(Cn3c(=O)sc4ccccc43)n2C)cc1,0.2
C[C@H](NC(=O)Cn1cncn1)c1ccccc1,-1.0
C=C(CC1([C@@H](NP(=O)(c2ccccc2)c2ccccc2)[C@H]2C[C@@H]2CCCC)CC1)c1ccccc1,-2.1
Clc1ccc(CSc2nnc(-c3cccnc3)n2Cc2ccco2)c(Cl)c1,1.9
CCn1c(SCC(=O)N(C)C2CCS(=O)(=O)C2)nnc1-c1cccs1 (configuration not stated),-0.5
CCOC(=O)CCc1c(C)c2ccc(OCc3cc([N+](=O)[O-])ccc3OC)cc2oc1=O,-0.3
COc1cccc(CN(C(=O)Cc2c[nH]c3ccccc23)C(C(=O)NC2CCCCC2)c2ccc(C)o2)c1 (configuration not stated),-1.3

# Some of these compounds in order of SMILES length, largest number first.
SMILES,STK33 kinase inh
C=C(CC1([C@@H](NP(=O)(c2ccccc2)c2ccccc2)[C@H]2C[C@@H]2CCCC)CC1)c1ccccc1,-2.1
COC(=O)c1ccc(CN2CCC(n3nccc3NC(=O)C3CC3)CC2)cc1,-1.9
C[C@H](NC(=O)Cn1cncn1)c1ccccc1,-1.0
S=c1nc(-c2ccco2)[nH][nH]1,-2.3

# The main list resumes; the 2 compounds before the break are reprinted first.
SMILES,STK33 kinase inh
CCOC(=O)CCc1c(C)c2ccc(OCc3cc([N+](=O)[O-])ccc3OC)cc2oc1=O,-0.3
COc1cccc(CN(C(=O)Cc2c[nH]c3ccccc23)C(C(=O)NC2CCCCC2)c2ccc(C)o2)c1 (configuration not stated),-1.3
O=C(COC(=O)C1COc2ccccc2O1)NC(=O)NC1CCCCC1 (configuration not stated),-0.9
CCOc1ccc(S(=O)(=O)Nc2cc(Sc3ncn[nH]3)c3oc(=O)sc3c2)cc1,0.1
O=C(CN(CCN1CCOCC1)C(=O)Cn1nnc(-c2ccc(F)cc2)n1)NC1CCCCC1,0.3
Cc1cccc[n+]1CC(=O)N1c2ccccc2Sc2ccccc21,0.1
CC(Sc1nnnn1C)C(=O)Nc1ccc2c(c1)OCCO2 (configuration not stated),0.2
CCOC(=O)C(C(=O)NCCCN1CCOCC1)C1CCCCC1 (configuration not stated),-1.4
Cc1ccc2nc3c(cc2c1)c(NC(=O)c1cccnc1)nn3C,0.5
O=C(O)c1ccc(Cl)cc1Nc1nc2cc(Cl)ccc2o1,-0.6
c1ccc(OCc2nn3c(-c4n[nH]c5c4CCC5)nnc3s2)cc1,1.0
CSc1c(SCc2ccccc2)cnn(Cc2ccccc2)c1=O,-6.4
COc1cccc(NC(=O)COC(=O)c2c(F)cccc2F)c1,-0.8
CCOC(=O)c1cnc(-c2ccccc2)nc1N1CC(C)OC(C)C1 (configuration not stated),0.4
CC1(C)NC(=O)N(CC(=O)N2CCC(Cc3ccccc3)CC2)C1=O,-1.7
COc1ccccc1CNC(=O)[C@@H]1CCCN1C(=O)[C@@H]1Cc2ccccc2CN1C(=O)OC(C)(C)C,0.0
O=C(CSc1ccccn1)Nc1nncs1,0.4
COCCOc1ccc(C(F)(F)F)cc1NC(=O)c1ccc(C(F)(F)F)cc1,-1.4
CCc1nc2ccccc2n(CCOCCOCCn2c(=O)c(CC)nc3ccccc32)c1=O,-1.6
O=C(N/N=C/c1cn(-c2ccccc2)nc1-c1cccs1)c1ccc(Cl)cc1,0.1
CCOC(=O)N1CCN(CCC(=O)Nc2ccc(F)c(F)c2)CC1,-0.1
CCOC(=O)CSc1nc2cc(C(=O)NCC3CCCO3)ccc2c(=O)n1Cc1ccco1 (configuration not stated),-1.1
Cc1ccc(/C=C/C(=O)c2c(C)nc3ccccn23)cc1,1.5
Cc1cccc(NC(=O)CSc2nnc3ccc(-c4ccccn4)nn23)c1,-0.4
Cc1cc2c(cc(C(=O)OC(C(=O)NCC3CCCO3)C(C)C)n2C)o1 (configuration not stated),1.1
O=C(O)CCSc1nc2ccccc2n1Cc1ccccc1,-0.7
COc1ccc2[nH]c(C(=O)NCCCN3CCCC3=O)c(C)c2c1,-0.9
# (more compounds)
SMILES,STK33 kinase inh
O=C(NNC(=O)c1ccccc1Br)c1cccs1,-0.4
O=C(Nc1ccc2oc(-c3cccc(F)c3)nc2c1)c1ccccc1F,-1.6
CCOc1ccc(NC(=O)CS(=O)CC(=O)NC2CCCc3ccccc32)cc1 (configuration not stated),-2.1
Cc1cc(=O)oc(C)c1C(=O)NNC(=O)C1(C)CC1Br (configuration not stated),-1.1
O=C(CCCn1c(SCC(=O)NCCc2ccccc2)nc2ccccc2c1=O)NCC1CCCO1 (configuration not stated),-1.2
CCCS(=O)(=O)N1CCCC(C(=O)c2ccccc2OC)C1 (configuration not stated),-0.3
Cc1cccc(/C=N/NC(=O)c2ccc(NC(=O)c3ccc(F)cc3)cc2)n1,0.4
CN(C)c1ncnc2c1NC1=C(S2)C(=NCCCC(=O)O)CC(C)(C)C1,1.1
CCOC(=O)c1ccc(NC(=O)CC2NCCNC2=O)cc1 (configuration not stated),0.0
CCC/C(=N\NC(=O)c1ccccc1C)c1ccccc1,-1.9
CN(CC(=O)Nc1ccc(F)cc1)C(=O)c1ccncc1,-1.4
COC(C(=O)Nc1ccnn1C1CCN(C(=O)c2ccc(C=O)cc2)CC1)c1ccccc1 (configuration not stated),-2.6
Cc1ccc2nc(SCC(=O)Nc3cccc(S(=O)(=O)N(C)C)c3)[nH]c2c1,5.1
O=C(CSc1nnnn1-c1ccc(C(=O)O)cc1)NC1CC1,-0.2
COc1ccc(NC(=O)CSCC(=O)Nc2sccc2C#N)cc1,-0.7
COC(=O)CC1=NN(c2ccccc2)C(=O)/C1=C\c1ccc(OC)cc1,0.4
CCN(CC(=O)Nc1ccc2c(c1)OCCO2)C(=O)/C=C/c1ccc(OC)c(OC)c1,-2.2
CCOC(=O)C1Cc2c([nH]c3ccccc23)C(C)N1 (configuration not stated),-1.5
O=C(c1ccco1)N1CCN(C(=O)c2ccc(CS(=O)c3cccc(Cl)c3)o2)CC1 (configuration not stated),-1.1
COc1ccc(Cl)c(NC(=O)Cn2nnc(-c3ccccc3N)n2)c1,-0.9
Cc1c(C=N)c(O)n(C)c(=O)c1C#N,1.3

# Only part of the results is shown, and most or all hits are left out here.
